RVFV N-RNA FP: inhibitors of Rift Valley Fever Virus nucleocapsid-RNA interaction. RVFV N-RNA binding, fluorescence polarization; hits give low values. actives 0.1% (n = 20,000). % bound, % (concentration not given with the values). P21700;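 active means between 0 and 58% in either replicate with normal brightness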;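 further: 100 nL library stock added to about 12 µL; 100% = protein and probe without compound and 0% = probe alone; numbers are from one replicate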
Target sequence (P21700 whole entry, looked up): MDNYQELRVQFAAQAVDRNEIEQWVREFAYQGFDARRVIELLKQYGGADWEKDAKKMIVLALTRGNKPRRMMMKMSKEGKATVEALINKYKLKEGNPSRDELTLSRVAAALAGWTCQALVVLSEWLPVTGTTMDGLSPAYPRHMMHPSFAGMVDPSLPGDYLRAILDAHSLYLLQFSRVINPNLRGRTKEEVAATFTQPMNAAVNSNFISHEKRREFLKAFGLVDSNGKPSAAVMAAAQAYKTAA
* marks the source's active call; other numbers are inactive results; & = joins results of further samples. An excerpt; rates above refer to the full screens.

smiles	RVFV N-RNA FP
CCC1(C)Cc2c(sc3nc4n(c(=O)c23)CCCS4)CO1 (centres undefined)	95
Fc1c(F)c(-n2cccn2)c(F)c(F)c1-c1c(F)c(F)c(-n2cccn2)c(F)c1F	93
COCc1nc2c([nH]1)c(=O)n(C)c(=O)n2CC(C)C	93
CO[C@H]1/C=C/O[C@@]2(C)Oc3c(C)c(O)c4c(O)c(c(C=NN5CCN(C6CCCC6)CC5)c(O)c4c3C2=O)NC(=O)/C(C)=C\C=C\[C@H](C)[C@H](O)[C@@H](C)[C@@H](O)[C@@H](C)[C@H](OC(C)=O)[C@@H]1C	92
CCOC(=O)c1c(C)nsc1NN=C(C#N)C(=O)C(C)(C)C	89
Nc1cc(N)cc(C(F)(F)C(F)(F)C(F)(F)F)c1	85
O=C1C2CNC3(C(=O)Nc4ccccc43)C2C(=O)N1C1CCCCC1 (centres undefined)	92
CCO/C=C(\C#N)C(=O)Nc1ccc(F)c(Cl)c1	103
CC(C)CP(=O)(O)c1ccccc1	96
CNc1nc(N2CCCC2)ncc1F	107
CN1CCN(C(=O)CCN2C(=O)/C(=C/c3ccccc3)SC2=S)CC1	92
CN1CCCN(Cc2coc3ccccc3c2=O)CC1	99

Some of the entries above, set out differently:
> CC(C)CP(=O)(O)c1ccccc1
  RVFV N-RNA FP: 96

> CNc1nc(N2CCCC2)ncc1F
  RVFV N-RNA FP: 107

(next part)
smiles	RVFV N-RNA FP
Cc1ccc(-c2nc(-c3ccc(C)cc3)[nH]c(=O)n2)cc1	91
Cc1ccc(/C=C/C(=O)Nc2cccc(NC(=O)/C=C/c3ccc(C)o3)n2)o1	104
Oc1[nH]c2ccccc2c1C=NCCC1=CCCCC1	85
COc1ccc(OC)c(NC(=O)CSc2ncnc3c2oc2ccccc23)c1	97
NC(=S)NN=C1Cc2ccccc2C1	98
CCN(CC)CC(=O)N1N=C(c2ccc(OC)cc2)CC1c1cccc(OC)c1OC (centres undefined)	101
CNC(=S)NNc1nc(N2CCCC2)nc(N2CCCC2)n1	93
C#CC(C)(C)NC(=O)c1cccnc1Oc1ccccc1	98
Clc1nc2ccc(Br)cc2s1	98
NC(=S)N/N=C/c1cn[nH]c1-c1ccccc1	98
Cc1nnsc1C(=O)Nc1ccccn1	98
CCOC(=O)C1=C(C)N=C2SCCC(=O)N2C1c1ccccc1 (centres undefined)	95

Looked up by structure from the list above, eight records:
smiles	RVFV N-RNA FP
CCN(CC)CC(=O)N1N=C(c2ccc(OC)cc2)CC1c1cccc(OC)c1OC (centres undefined)	101
O=C1C2CNC3(C(=O)Nc4ccccc43)C2C(=O)N1C1CCCCC1 (centres undefined)	92
COc1ccc(OC)c(NC(=O)CSc2ncnc3c2oc2ccccc23)c1	97
CCOC(=O)c1c(C)nsc1NN=C(C#N)C(=O)C(C)(C)C	89
NC(=S)N/N=C/c1cn[nH]c1-c1ccccc1	98
Cc1nnsc1C(=O)Nc1ccccn1	98
Nc1cc(N)cc(C(F)(F)C(F)(F)C(F)(F)F)c1	85
Cc1ccc(-c2nc(-c3ccc(C)cc3)[nH]c(=O)n2)cc1	91

Continued:
smiles	RVFV N-RNA FP
CC(=O)SCC[N+](C)(C)C	96
CCCCNC(=O)Oc1ccc(C2=NCCS2)cc1	96
CCOC(=O)N/N=C1\CCS(=O)(=O)c2ccc(Cl)cc21	107
C=CCSc1nc2ccccc2c(=O)n1CC=C	100
Cc1ccc(OCC(=O)Nc2ccccc2C(=O)N(C)C)cc1	97
O=C(Nc1cc(Cl)cc(Cl)c1)C1=COCCO1	95
COCCn1c(SCC(=O)N2CCc3ccccc32)nc2c(c1=O)SC(C)C2 (centres undefined)	98
c1ccc2c3c([nH]c2c1)CCCC3	91
N#Cc1sccc1CS(=O)(=O)c1ccc(Cl)cc1	93
Cc1c(Cl)ccc2sc(N(Cc3ccccn3)C(=O)c3ccco3)nc12	109
O=C(C1CC1)N1CCN=C1SCc1cccc(C(F)(F)F)c1	95
c1ccc(-c2cc3ncnc(N4CCSCC4)c3s2)cc1	89
CCOC(=O)N1CCN(C(=O)CN(c2ccc(C)cc2)S(=O)(=O)c2cc(C)ccc2OC)CC1	111
Cc1nc2c(C)cccc2c2c1CCN2c1ccccc1F	95
Cc1ccc(N(C(C)C(=O)N(C)C)S(C)(=O)=O)cc1 (centres undefined)	95
Cc1cc(C)c2c(CC(=O)NN3CCN(C)CC3)coc2c1	94
COC(=O)C1=C(C)NC(C)=C(C(=O)OC)C1c1ccccc1[N+](=O)[O-]	96&89&94
CC1=C(CC(=O)O)c2cc(F)ccc2/C1=C\c1ccc(S(C)=O)cc1 (centres undefined)	95&97
Cc1noc(C(F)(F)F)c1C(=O)O/N=C(\N)c1ccc(C(F)(F)F)cc1	94
Cn1cc(/C=C(/C#N)c2ccc(C(=O)O)cc2)c2ccccc21	100
CCC(=O)N1CCN(c2ccc(N3CCOCC3)nn2)CC1	97
Cc1cccc(C)c1NC(=O)CNc1ccccc1	95
O=C1OCCC1Sc1nc(-c2ccccc2)cs1 (centres undefined)	95
NC(=O)C1CCN(C(=O)NC2CC(=O)N(c3ccc(Cl)cc3)C2)CC1 (centres undefined)	95
CCCN(C)S(=O)(=O)c1ccc(I)cc1	100
CCN(CC)CC(O)COc1ccc(OCc2ccccc2)cc1 (centres undefined)	98
CC1(C)Cc2c(sc3nc(N4N=N4)nc(NCCO)c23)CO1	103
FC(F)(F)c1cccc(OCCCn2cncn2)c1	90
FC(F)(F)c1cccc(CSc2ncnc3c2oc2ccccc23)c1	98
CN(C)c1ccc(NC(=O)C2CC3CCCC(C2)C3=O)cc1 (centres undefined)	95
O=C1NCCCCC1NS(=O)(=O)c1cccc(C(F)(F)F)c1 (centres undefined)	88
CC(C)=CC(=O)Nc1cc(Cl)ccc1C	90
Cc1ccc2c(c1)c1c(n2C)C(C#N)CCC1 (centres undefined)	92
O=C1CC(NC2CCN(c3ncccn3)CC2)C(=O)N1c1ccc(F)cc1 (centres undefined)	92
O=C1CCC(=O)N1OCC(=O)N(c1ccccc1)c1ccccc1	88
CC(C)n1c(-c2ccncc2)n[nH]c1=S	99
Cc1cc(NC(=O)CSc2ncccn2)no1	93
CN(C)/C=C(\C#N)C(=O)NCc1ccc(F)cc1F	93
OC1(C(F)(F)F)CC(c2ccncc2)=NN1 (centres undefined)	100
O=C(C1CCCO1)N1CCN(C(=S)NC2CCCCC2)CC1 (centres undefined)	94
CSc1nsc(SCC(=O)NC2CCCCC2)n1	99
NC(=O)CSc1ccc2nnc(-c3ccc(Cl)cc3)n2n1	98
Cc1cc(C)n(C(=O)c2ccc(S(=O)(=O)N3CCCCCC3)cc2)n1	102
Cc1cc2ncc(S(=O)(=O)C(C)(C)C)c(N)n2n1	92
CCN1CCOC2(O)C=CC(=O)C=C12 (centres undefined)	102
COC(=O)C1=C(NNc2ccccc2)CSC1	94
Cc1ccccc1NS(=O)(=O)c1ccc(C2CNC(=O)C2)cc1 (centres undefined)	90
COC(=O)c1cc(C(C)(C)C)[nH]n1	103
Cc1cc(=O)[nH]c2c(C)cc(S(=O)(=O)N3CCOCC3)cc12	93
O=C(NCC1CCCN1S(=O)(=O)c1ccccc1)c1ccccc1 (centres undefined)	101
CC(C)(C)NC(=O)Nc1cccc2ccccc12	92
O=C1c2ccccc2C(=O)N1OCCOCCON1C(=O)c2ccccc2C1=O	102
CCOC(=O)c1[nH]c(C)c(C(=O)N(Cc2ccccc2)C(C)C)c1C	99
CC1CCN(CC(O)CN2c3ccccc3Sc3ccccc32)CC1 (centres undefined)	90
C1CNC(C23CC4CC(CC(C4)C2)C3)=N1	97
CCc1ccc(NC(=S)NNC(C)(C)C)cc1	92
O=C(c1ccccc1)n1sc(=O)c2ccccc21	83
CCN1C(=O)C(=Cc2ccc(N3CCCC3)cc2)C(=O)N(CC)C1=S	105
NC(N)=NS(=O)(=O)c1ccc(N/C=C2/CCc3ccccc3C2=O)cc1	101
CSc1nc2c(cc1C#N)CCC2	100

The listing continues:
smiles	RVFV N-RNA FP
COc1ccc(Cl)cc1C(=O)NCCc1ccc(S(=O)(=O)NC(=O)NC2CCCCC2)cc1	95&99&93
O=C(c1ccco1)N1N=C(c2c(-c3ccccc3)c3cc(Cl)ccc3[nH]c2=O)CC1c1ccco1 (centres undefined)	97
Cc1cc(Nc2ccc(S(=O)(=O)N3CCOCC3)cc2)c2ccc(C(F)(F)F)cc2n1	101
Cc1ccc(SCc2cc(=O)n3c(nc4ccccc43)[nH]2)cc1	77
N#CCOc1ccc2oc(-c3ccccc3)cc(=O)c2c1	93
COC(=O)c1ccc(NC(=O)CSc2nnc(-c3ccccc3Cl)n2N)cc1	88
O=P1(Nc2ccc(Cl)cc2)CC=CC1	94
O=C(NCCN1CCCCC1)c1ccc(-c2ccccc2)cc1	97
Cc1[nH]c2ccccc2c1SCC(=O)N1CCCCC1	93
COc1ccccc1-c1noc(CCC(=O)Nc2ccccc2C(F)(F)F)n1	94
O=C(CCC1CCCCC1)NCc1cccs1	96
CCN1CCC(N2CCN(c3ccccc3)CC2)CC1	92
CN(C)C(=S)Nc1ccc2c(c1)OCO2	87
CCOC(=O)Cn1nc2n(c1=O)-c1ccccc1SC2	94
COc1ccc(OC(=O)OCC(C)C)cc1	101
CCN(CC)CCSc1nnc2c3cc(C)ccc3n(C)c2n1	87
Cc1cccc(NC(=O)NCCN2CCOCC2)c1	93
O=c1[nH][nH]c(=S)n1C1Cc2ccccc2C1	88
S=C1CCCN1c1ccccc1	104
O=C(Cc1ccccc1)NCC(=O)N1CCN(c2ccccc2)CC1	92
CN(C)c1nc(OCC(=O)NC(C)(C)C)nc(N(C)C)n1	105
CC1CCc2cc(F)ccc2N1C(=O)CN1C(=O)c2ccccc2S1(=O)=O (centres undefined)	103
CCN(CC)C(=O)Nc1c(-c2c(Cl)cccc2Cl)noc1C	98
Cc1cc(C(=O)N(Cc2ccccc2)c2ccccc2)no1	90
O=C(O)CCc1ccc(-c2ccc(F)cc2)n1CC1CCCO1 (centres undefined)	107
CCc1ccc(C2C(C#N)=C(N)Oc3cc(C)oc(=O)c32)cc1 (centres undefined)	92
CSc1scc2c1C(=O)/C(=C/N(C)C)CC2	94
COC(=O)Nc1nc(-c2cccc(Br)c2)cs1	94
O=C1Nc2ccc(Cl)cc2C(c2ccccc2Cl)=NC1O (centres undefined)	96
Cn1cccc1/C=N/NC(=O)c1sc2cc(Cl)ccc2c1Cl	90
CNC(=O)c1ccccc1S(=O)c1cccc2cccc(C(=O)OC)c12 (centres undefined)	97
O=C(Nc1ccccc1C(=O)NC1CC1)c1ccco1	94
NS(=O)(=O)c1cc(C2(O)NC(=O)c3ccccc32)ccc1Cl (centres undefined)	94
COC(=O)c1c(NC(=O)/C(C#N)=C/c2ccco2)sc(C)c1C	94
COc1ccc(CCC(=O)Nc2ccc(-c3noc(-c4ccc(OC)c(OC)c4)n3)cc2)cc1	91
Cc1onc(-c2c(F)cccc2Cl)c1C(=O)N=C(N)N1CC(C)OC(C)C1 (centres undefined)	99
COc1ccc2nc(NNC(=O)c3ccc(S(=O)(=O)N4CCCC4)cc3)sc2c1	98
CSC1=NCCN1C(=O)COc1ccc2ccccc2c1	92
COc1ccc(CCNC(=S)N2CCCC2)cc1OC	93
O=C(CCCc1ccccc1)Nc1cccnc1	94
c1cc2c(cc1CN1CCSCC1)OCO2	92
Cc1nc(N)nc(OCC(F)(F)C(F)F)c1Br	105
Cc1ccc(CNC(=O)Nc2ccc(C(C)(C)C)cc2)n1C	96
CN(C)C(=O)c1ccc(-c2n[nH]c(=O)c3ccccc23)cc1	94
CC(=O)NC1(C(F)(F)F)N=C(c2ccc(C)cc2)NC1=O (centres undefined)	95
CCOC(=O)CCc1c(C(=O)OCC)[nH]c(CC)c1C(=O)OCc1ccccc1	94
CSCCn1c(-c2ccccc2)cc(C(=O)N2CCOCC2)c1C	97
O=C(NC1CCCCCCC1)C1CCCC1	98
CCN1C(=O)/C(=C/c2ccc(C(C)C)cc2)NC1=S	102
O=C(NC(=O)c1ccccc1)Oc1ccc(F)cc1	98
C#CCn1c(=NC(=O)C(C)C)sc2cc(Br)ccc21	93
COc1ccc(C2CC(=O)CC(=O)C2)cc1	102
O=C(CSc1nc(=O)n2ccccc2n1)NC1CCCC1	92
O=C(c1ccc(F)cc1)c1ccc(N2CCCCC2)cc1	98
Cc1ccc(N(C)C(=O)n2cnc3ccccc32)cc1	97
OC(CON=C1c2ccccc2-c2ccccc21)Cn1nnc2ccccc21 (centres undefined)	96
N#C/C(=N\Nc1ccc(F)cc1)C(=O)NCC1CCCO1 (centres undefined)	101
O=C(Nc1ccc2c(c1)C(=O)NC2=O)c1ccccc1	87
CCCCN1C(=O)CC(NNCc2ccccc2)C1=O (centres undefined)	103
CC(C)(C)NS(=O)(=O)Cc1ccccc1Cl	99

Further results
smiles	RVFV N-RNA FP
Cc1ccc(NC(=O)c2ccccc2C)cc1	92
CC(C)NC(=S)N/N=C/c1ccn[nH]1	95
COC(=O)c1cccc(NC(=O)CC(C)C)c1	104
CC(C)Cn1nnc2c(=O)oc3ccccc3c21	90
N/C(CN1CCSCC1)=N\O	104
CCN1C(=O)CSC1=Nc1ccccc1Cl	101
Clc1ccc(N2CCN(Cc3cc4ccccn4n3)CC2)cc1	94
O=C(Nc1ccc(F)cc1OC(F)(F)F)N1CCC(O)CC1	91
CCC(CC)C(=O)NCCc1ccc(OC)c(OC)c1	93
CC(=O)Nc1ccc(C(=O)CSc2nnc(C)o2)cc1	100
CC(C)(C)NC(=O)c1ccccc1-c1nc(-c2ccccc2)no1	101
